Sa growth inh = S. aureus growth inhibition at 42 and 30 °C, primary screen, LtaS inhibitor project, RN4220, two temperatures; OD600, 20 h, 42 °C; active compounds read low; relative growth, % (test concentration not listed); 170,000 compounds, 0.53% hits; AID 720641, 2013;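 active = growth at 42 °C up to 50% and 20 or more points under that at 30 °C, or under 10% at both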;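 also: 300 nL library stock went into each well; scaled to the means of positive and negative controls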
HCMV UL50-53 inh = inhibitors of HCMV UL50-UL53 interaction, biochemical, HTRF; HCMV UL50-UL53 nuclear egress complex (human cytomegalovirus); 190,000 compounds, 0.15% hits; normalized percent inhibition; inhibition, % (test concentration not listed);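 active = both replicates at 50% or more, plus weaker picks with an unusually low signal ratio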;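 also: stock transfer was 100 nL into about 20 µL; 0% = negative control wells and 100% = wells with untagged competitor protein; inactives centre near -12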
GIV-Gai inh = inhibitors of GIV peptide binding to Galpha-i3, primary screen, biochemical, fluorescence polarization, FITC-GIV GBA peptide, rat Galphai3; Guanine nucleotide-binding protein G(i) subunit alpha-3 (Rattus norvegicus), P08753; 90 min; active compounds read low; scaled: aluminum fluoride 0%, vehicle 100%; percent of control (FP), % (test concentration not listed); 210,000 compounds, 0.42% hits; AID 1224905, 2016;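 active = replicate mean at 85% of control or lower, very high polarization wells dropped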;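 also: lower values mean more displacement of the GIV peptide from Galpha-i3; wells of about 15 µL received 100 nL stock; the first replicate is given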
Target sequence (P08753 whole entry, looked up): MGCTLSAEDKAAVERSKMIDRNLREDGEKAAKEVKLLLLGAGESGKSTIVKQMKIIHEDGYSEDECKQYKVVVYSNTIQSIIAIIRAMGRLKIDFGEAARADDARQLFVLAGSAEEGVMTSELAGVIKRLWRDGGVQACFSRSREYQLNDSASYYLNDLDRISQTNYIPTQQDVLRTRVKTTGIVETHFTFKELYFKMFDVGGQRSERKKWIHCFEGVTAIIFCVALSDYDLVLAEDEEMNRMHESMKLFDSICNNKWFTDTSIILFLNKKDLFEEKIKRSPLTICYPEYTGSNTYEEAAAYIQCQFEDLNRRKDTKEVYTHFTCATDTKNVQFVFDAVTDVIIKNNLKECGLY
Sa growth inh second temp = further read-out of Sa growth inh, marked with its call; relative growth, %; measured here: growth at 30 °C;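 optical density after 20 h as mean of two plates; 100% = untreated growth and lower means inhibition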
* hit, by the source's call; x = no result given; & = joins results of further samples.

1) FC(F)(F)c1[nH]ncc1-c1ccccc1
2) CCN(C(=O)c1c(C)oc2ncnc(N3CCCCC3)c12)c1ccccc1C
3) CC(C)Cn1c(C(O)c2ccccc2)nc2ccccc21 (stereo not drawn)
4) CCn1c(C(=O)O)c(CNC2CCC(C)CC2)c2ccccc21 (stereo not drawn)
5) CCC(C)NC(=O)CSc1nc2ccc(N3CCOCC3)cc2c(=O)n1Cc1ccc2c(c1)OCO2 (stereo not drawn)
6) COc1ccc2c(c1)c1c(c(=O)n(-c3ccccc3)c(=O)n1CC(=O)Nc1ccc(F)cc1)n2C
screen / no. | 1 | 2 | 3 | 4 | 5 | 6
Sa growth inh | 109 | x | 112 | 109 | 109 | 116
Sa growth inh second temp | 115 | x | 76 | 88 | 93 | 92
HCMV UL50-53 inh | 1 | 2 | x | x | -4 | x
GIV-Gai inh | 101 | 103 | 103 | 158 | 102 | 104

7) Cc1cccc(N(C)S(=O)(=O)c2nnc(NC(=O)C3CCCCC3)s2)c1
8) Cc1ccc(NC(=O)c2ccc(NC(=O)N3CCSc4ncccc43)cc2)c(Cl)c1
9) CCn1c(CSc2nnc(C3CC3)n2C)nc2cc(S(=O)(=O)N3CCCCC3)ccc21
10) O=C1COc2ccc(S(=O)(=O)N3CCCC(C(=O)N4CCc5ccccc54)C3)cc2N1 (stereo not drawn)
11) CC(C)NC(=O)Cn1c(=O)nc(-c2ccccc2)c2ccccc21
12) Cc1c(C(=O)Nc2ccc(Br)cc2)sc2nc(-c3ccc(F)cc3)cn12
screen / no. | 7 | 8 | 9 | 10 | 11 | 12
Sa growth inh | 88 | 86 | 77 | x | 82 | x
Sa growth inh second temp | 87 | 91 | 84 | x | 91 | x
HCMV UL50-53 inh | -6 | x | -8 | -17 | -68 | -5
GIV-Gai inh | 104 | 104 | x | 117 | 105&106 | 106

13) Oc1ccccc1C(=S)N1CCN(C(=S)c2ccccc2O)CC1
14) CCC(CO)Nc1nnc(-c2ccccc2)c2ccccc12 (stereo not drawn)
15) Cc1nn(-c2ccc(Cl)cc2)c2sc(C(=O)O)cc12
16) CN(C)S(=O)(=O)c1ccc(C(=O)Nc2ccccc2SCCC#N)cc1
17) Cc1ccc2nc3c(cc2c1)CCN3C(=O)c1ccc(S(=O)(=O)N2CCCC2)cc1
18) CCC(=O)Nc1nonc1-c1ccc(OC)cc1
screen / no. | 13 | 14 | 15 | 16 | 17 | 18
Sa growth inh | 89 | 141 | 89 | 77 | x | 102
Sa growth inh second temp | 73 | 71 | 90 | 74 | x | 86
HCMV UL50-53 inh | -15 | -50 | -12&9 | -16 | -21 | -16
GIV-Gai inh | 100 | x | 97 | 100 | 105 | 103

19) CCOC(=O)C(Cc1c[nH]c2ccccc12)NC(=O)c1ccc(Br)cc1 (stereo not drawn)
20) Cc1ccc2c(c1)c(=O)c1ccccc1n2CC(=O)Nc1ccc(OCc2ccccc2)cc1
21) COc1cc(OC)c(NC(=O)c2cnn(-c3cccc(Cl)c3C)c2C2CCN(C(=O)OC(C)(C)C)CC2)cc1Cl
22) Cn1c(=O)c2c(-c3ccc(Br)cc3)n(CCO)cc2n(C)c1=O
23) O=S(=O)(c1cccc(Cl)c1Cl)N1CCOCC1
24) CCN(CC)c1nn2c(=O)c(C(=O)N3CCC4(CC3)OCCO4)cnc2s1
screen / no. | 19 | 20 | 21 | 22 | 23 | 24
Sa growth inh | x | x | 84 | 78 | 109 | 99
Sa growth inh second temp | x | x | 91 | 80 | 108 | 91
HCMV UL50-53 inh | -7 | -10 | x | -16 | 3 | -20
GIV-Gai inh | 105 | 104 | 106 | 101 | 104 | 106

25) COc1cccc(OC)c1CN(C)C(=O)c1cnc(OC(C)C)cc1C(F)(F)F
26) N#Cc1ccc(NC(=S)NCCN2CCOCC2)cc1
27) Clc1ccc(Sc2ccc(-c3ccccn3)s2)cc1
28) CCOC(=O)c1ccc(NC(=O)C2=CSCCO2)cc1
29) O=C(Cc1cccs1)NCCCN1CCCC1=O
30) Cc1cc(C)cc(NC(=O)c2ccc(COc3ccccc3Br)o2)c1
screen / no. | 25 | 26 | 27 | 28 | 29 | 30
Sa growth inh | 113 | 95 | 118 | 112 | 121 | 110
Sa growth inh second temp | 100 | 86 | 101 | 84 | 84 | 98
HCMV UL50-53 inh | -10 | -8 | 26 | -13 | 1 | -10
GIV-Gai inh | 106 | x | 100 | 110 | 110 | 112

31) CC(=O)N1CCCSc2ccc(S(=O)(=O)Nc3ccc(NC(=O)c4ccccc4)c(C)c3)cc21
32) CCC(C(=O)NC1CCCC1)N(C(=O)c1snc(C(N)=O)c1N)c1ccccc1 (stereo not drawn)
33) O=C(N1CCOCC1)N1CCN(Cc2ccccc2)CC1
34) N/C(=N/O)c1nc(N2CCCCC2)nc(N2CCCCC2)n1
35) CCn1c2c(c(=O)[nH]c1=O)C(c1ccsc1)C1=C(N2)c2ccccc2C1=O (stereo not drawn)
36) CCOC(=O)c1cc(-c2ccccc2)n(CCCC(=O)NCc2ccccc2)c1C
screen / no. | 31 | 32 | 33 | 34 | 35 | 36
Sa growth inh | x | 108 | 115 | 86 | 97 | 97
Sa growth inh second temp | x | 82 | 79 | 93 | 89 | 89
HCMV UL50-53 inh | -15 | -18 | 9 | 3 | x | x
GIV-Gai inh | 104 | 97 | 113 | 102 | 104 | 103

37) CSc1cccc(NC(=O)CN2CCN(Cc3ccccc3C)S2(=O)=O)c1
38) COC(=O)CSc1nc2sc3c(c2c(=O)n1Cc1ccccc1)CC(C)(C)OC3
39) O=C(NCCc1csc2nc(-c3cccc(F)c3)nn12)c1ccc(Br)cc1
40) CC(=O)N(C)Cc1nc2ccccc2n1CCOc1cccc(C)c1C
41) O=C(CCN1N=C(c2ccccc2)CCC1=O)Nc1cccc(C(F)(F)F)c1
42) O=c1ccccn1CCOc1ccc(Cl)cc1Cl
screen / no. | 37 | 38 | 39 | 40 | 41 | 42
Sa growth inh | 122 | x | x | 110 | 98 | 98
Sa growth inh second temp | 102 | x | x | 82 | 81 | 89
HCMV UL50-53 inh | x | -11 | -6 | -2 | x | -26
GIV-Gai inh | 103 | 105 | 101 | 105 | 105 | 105

43) S=c1[nH]nc(C2CCCCC2)n1N=Cc1cccnc1
44) Cc1nc(-c2c[nH]c3ccccc23)c(C)s1
45) CCN1CCN(C(=O)Nc2ccc(OC)cc2)CC1
46) O=C(Nc1cc(-c2nc3cc(Cl)ccc3o2)ccc1Cl)c1ccco1
47) O=C1NC(Cc2c[nH]c3ccccc23)C(=O)N1CCN1C(=O)c2ccccc2C1=O (stereo not drawn)
48) CN1CCN(C(=O)c2cc3c(s2)-c2ccccc2SC3)CC1
screen / no. | 43 | 44 | 45 | 46 | 47 | 48
Sa growth inh | 98 | 91 | 95 | 90 | 61 | x
Sa growth inh second temp | 100 | 87 | 100 | 85 | 86 | x
HCMV UL50-53 inh | 13 | -8 | -28 | -21 | -34 | -42
GIV-Gai inh | 109 | x | 98 | 121 | x | 99

Next part; the last 4 above are carried over.
45) CCN1CCN(C(=O)Nc2ccc(OC)cc2)CC1
46) O=C(Nc1cc(-c2nc3cc(Cl)ccc3o2)ccc1Cl)c1ccco1
47) O=C1NC(Cc2c[nH]c3ccccc23)C(=O)N1CCN1C(=O)c2ccccc2C1=O (stereo not drawn)
48) CN1CCN(C(=O)c2cc3c(s2)-c2ccccc2SC3)CC1
49) CC(C)CN1CCOC(CN)C1 (stereo not drawn)
50) O=C(COc1cc2oc(=O)c3c(c2cc1Cl)CCC3)NCc1ccco1
51) COc1ccc2c(c1)Cc1sc(NC(=O)c3cccc(Cl)c3)nc1-2
52) CCn1c(=O)n(-c2ccc(C)c(F)c2)c(=O)c2sc3ccccc3c21
53) COc1ccc(NC(=O)CSc2nc(-c3ccccc3)[nH]c2-c2ccccc2)cc1OC
54) Cc1cccc(OC(C)C(=O)OCC(=O)c2cc3ccccc3o2)c1 (stereo not drawn)
screen / no. | 45 | 46 | 47 | 48 | 49 | 50 | 51 | 52 | 53 | 54
Sa growth inh | 95 | 90 | 61 | x | 94 | 90 | 112 | 95 | 111 | 75
Sa growth inh second temp | 100 | 85 | 86 | x | 91 | 95 | 100 | 93 | 75 | 89
HCMV UL50-53 inh | -28 | -21 | -34 | -42 | -20 | 18 | x | -21 | -10 | -37
GIV-Gai inh | 98 | 121 | x | 99 | x | x | 102 | 100 | 102 | x

55) O=c1c2sccc2nc(SCc2nc(-c3ccccn3)no2)n1C1CC1
56) CC(C)c1cc(NC(=O)CSc2nc3ccc(Cl)cc3[nH]2)on1
57) CN1CCN(c2nc3ccccn3c(=O)c2/C=C2\SC(=S)N(Cc3ccco3)C2=O)CC1
58) O=C(O)c1cccc2c1NC(c1cccc3ccccc13)C1CC=CC21 (stereo not drawn)
59) CCCn1c(=O)n(Cc2ccc(Br)cc2)c2ccccc21
60) CC(C)NC(=O)c1ccc(Cl)cc1Cl
screen / no. | 55 | 56 | 57 | 58 | 59 | 60
Sa growth inh | x | 80 | x | x | 55 | 108
Sa growth inh second temp | x | 90 | x | x | 44 | 90
HCMV UL50-53 inh | -34 | -30 | -11 | -26 | -13 | -22
GIV-Gai inh | 100 | x | 162 | 103 | x | 98

61) COc1cc(OC)c(NC(=O)Nc2ccc3c(c2)N(C)C(=O)c2ccccc2S3)cc1Cl
62) Cc1cc2occ(CC(=O)OCc3ccc(C#N)cc3)c2cc1C
63) O=C(O)CCC1(CCC(=O)O)C(=O)c2cccc3cccc1c23
64) COc1ccc(NC(=O)CSc2nc3c(c(=O)[nH]2)CN(Cc2ccccc2)CC3)cc1
65) O=C1NCCCC1C(=O)NCC(O)CO (stereo not drawn)
66) CCOC(=O)C(C)n1nc(C)c2sc3ccccc3c2c1=O (stereo not drawn)
screen / no. | 61 | 62 | 63 | 64 | 65 | 66
Sa growth inh | 95 | 82 | 102 | x | 89 | 107
Sa growth inh second temp | 92 | 92 | 83 | x | 88 | 83
HCMV UL50-53 inh | 9 | -17 | -21 | 4 | -16 | x
GIV-Gai inh | 99 | x | 102 | 103 | 101 | 110

67) CC(C)N1CC=C2C(C1)C(c1ccccc1Cl)C(C#N)=C(N)C2(C#N)C#N (stereo not drawn)
68) COc1cccc(N2CCN(C(=O)c3cc4c(=O)n(Cc5cccs5)ccc4nc3C)CC2)c1
69) CCN(C(=O)CSc1nnc(-c2ccc(Cl)cc2)o1)c1ccccc1
70) Nc1ccc2c(c1)ncn2CCc1ccccc1
71) CCN(C(=O)c1ccnc(C(C)(C)C)c1)c1ccccc1
72) CCc1ccc(-n2c(-c3ccccc3)c(C)n3c4c(=O)n(C)c(=O)n(C)c4nc23)cc1
screen / no. | 67 | 68 | 69 | 70 | 71 | 72
Sa growth inh | 98 | 94 | 106 | 100 | 102 | 79
Sa growth inh second temp | 65 | 88 | 86 | 96 | 105 | 100
HCMV UL50-53 inh | -50 | x | -10 | -1 | 4 | -3
GIV-Gai inh | 100 | 101 | 97 | 109 | 100 | 113

73) CSc1nnc(Cn2c(=O)sc3ccccc32)n1CCc1ccccc1
74) Cc1oc(/C=N/NS(=O)(=O)c2ccccc2)cc1Br
75) CCN(CC)C(=S)SC1CS(=O)(=O)CC1O (stereo not drawn)
76) O=C(CSCc1ccco1)CN1CCc2ccccc21
77) CC(C)N1CCS(=O)(=O)CC1
78) O=C(O)C1C2CCC(CC2)C1C(=O)O (stereo not drawn)
screen / no. | 73 | 74 | 75 | 76 | 77 | 78
Sa growth inh | 97 | 104 | 87 | 81 | 100 | 99
Sa growth inh second temp | 82 | 76 | 83 | 88 | 97 | 96
HCMV UL50-53 inh | -31 | -53 | -25 | -28 | 1 | 1
GIV-Gai inh | 102 | 102 | 103 | 98 | 103 | 105

79) COC(=O)COc1cccc2c(=O)n(CC(N)=O)ccc12
80) O=C(O)CCCC1=NS(=O)(=O)c2ccccc2N1
81) Cc1ccc(C(=O)n2nc(-c3cccnc3)nc2NCc2ccco2)cc1
82) O=C1C=CC(=O)N1c1ccccc1C(F)(F)F
83) Cc1nc2ccc(NC(=O)/C=C/c3ccc(Br)o3)cc2s1
84) CSCc1c(C)noc1-c1cc(C)on1
screen / no. | 79 | 80 | 81 | 82 | 83 | 84
Sa growth inh | 101 | 98 | 97 | 87 | 66 | 97
Sa growth inh second temp | 94 | 93 | 72 | 73 | 96 | 93
HCMV UL50-53 inh | -16 | 8 | -12 | -19 | -19 | 5
GIV-Gai inh | 97 | 99 | 101 | x | x | 105

85) CONC1=CC(=O)c2ccccc21
86) CCOC(=O)C1CCN(c2c(NCCCN(C)C3CCCCC3)c(=O)c2=O)CC1
87) CN(C)c1cccc(NC(=O)c2ccco2)c1
88) COc1cccc(-c2noc(N)c2C#N)c1
89) CC(C)(C)c1ccc2[nH]c3c(cc(Nc4ccccc4)c4c(=O)c5ccccc5c(=O)c43)oc2c1
90) Cc1ccc(C(=O)NC(CC(=O)O)C(F)(F)F)cc1 (stereo not drawn)
91) COc1ccc(-n2cnc3cc(C(=O)NC4CCCCC4C)ccc32)cc1 (stereo not drawn)
screen / no. | 85 | 86 | 87 | 88 | 89 | 90 | 91
Sa growth inh | 100 | x | 110 | 98 | x | 80 | 109
Sa growth inh second temp | 94 | x | 86 | 67 | x | 91 | 95
HCMV UL50-53 inh | -37 | -17 | -6 | -5 | -3 | 6 | x
GIV-Gai inh | x | 96 | x | 116 | 102 | x | 105

Screening results from PubChem.
